Source: PubChem BioAssay
PD-1 reversal – activators reversing PD-1 mediated T-cell inhibition; primary human CD4 T cells, PD-L1 beads, CellTiter-Glo 96 h; 29,000 tested, under 10 active; activation, % (concentration not given with the values);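 active = replicate mean of 50% or more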;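 note: 0% = median vehicle wells and 100% = positive control; 100 nL library stock added to about 50 µL; numbers are from one replicate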
MITF inh – inhibitors of MITF | TRPM1 promoter luciferase, luminescence, 24 h | inhibition, % (no concentration beside the values) | 0.28% of 37,000 active | AID 2240;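 active = most replicates at 85% or more, or half of them and the mean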;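 note: human melanocyte line stably carrying TRPM1 promoter luciferase reporter; 0% = vehicle wells and 100% = a positive control; the first replicate is given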
YB-1 expression – YB-1 expression inhibition. U2OS, qRT-PCR YB-1 vs CDIP delta delta Cp, 16 h; active compounds read high; zero = DMSO, each unit about twofold. delta delta Cp (YB-1 minus CDIP) (test concentration not listed). 0.37% of 30,000 active;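 active = delta delta Cp rounded down to an integer at or above 3, about 3 SD of DMSO wells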;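 note: higher means less YB-1 transcript or more CDIP transcript relative to DMSO; stock transfer was 100 nL into about 100 µL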
Hedgehog inh – blocks Sonic Hedgehog signaling; 2.1% of 22,000 active; Shh-LIGHT2 Gli-luciferase reporter, 30 h; inhibition, % (concentration not given with the values);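 active = replicate mean of 65% or more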;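 note: pathway switched on by Shh-conditioned medium diluted 1 in 25 in low serum; 100 nL library stock added to about 40 µL; 0% = median of neutral wells and 100% = positive control level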
* hit, by the source's call; x = not tested or not shown.

structure | PD-1 reversal | MITF inh | YB-1 expression | Hedgehog inh
COC(=O)C1=COC(OC2OC(CO)C(O)C(O)C2O)C2C1C=CC2(O)CO (stereo not given) | x | x | 0.81 | -18
C[C@H]1CN([C@@H](C)CO)C(=O)Cc2cc(NC(=O)Cn3cnnn3)ccc2O[C@@H]1CN(C)S(=O)(=O)c1cccs1 | 1.1 | -14 | -0.25 | -56
COc1ccc(S(=O)(=O)Nc2cccc3c2O[C@@H](CN(C)C(=O)Nc2cccc4ccccc24)[C@H](C)CN([C@@H](C)CO)C3=O)cc1 | 1.7 | -1 | 0.17 | 31
Cc1noc(C)c1NC(=O)N(C)C[C@@H]1Oc2ccc(NS(=O)(=O)c3cccs3)cc2CC(=O)N([C@H](C)CO)C[C@H]1C | x | 7 | -0.08 | -6
Cc1ccc(S(=O)(=O)Nc2cccc3c2O[C@@H](CN(C)Cc2ccc(Oc4ccccc4)cc2)[C@@H](C)CN([C@@H](C)CO)C3=O)cc1 | -0.1 | 7 | 0.025 | 38
C[C@@H]1CN([C@@H](C)CO)C(=O)c2cccc(NC(=O)C3CCCCC3)c2O[C@@H]1CN(C)Cc1ccc(C(=O)Nc2ccccc2N)cc1 | -4.5 | 32 | -0.47 | x
CCNc1c(N)c(=O)oc2ccccc12 | 1.0 | 1 | 1.3 | -7
COC(=O)c1ccccc1NC(=O)COc1ccc2ccccc2c1Br | -1.3 | -33 | x | x
CC(C)NC(=O)Nc1cccc2c1O[C@@H](CN(C)CC1CC1)[C@H](C)CN([C@@H](C)CO)C2=O | 1.3 | 5 | 0.34 | 15
Cc1cccc(C)c1OCC(O)CN1CCN(CCO)CC1 (stereo not given) | 0.2 | -6 | x | x
C[C@H]1CN([C@@H](C)CO)C(=O)c2cc(NC(=O)NC3CCCCC3)ccc2O[C@@H]1CN(C)CC1CCCCC1 | 1.6 | -7 | 0.067 | 8
CC(=O)c1cccc(NC(=O)CSc2ncnc3sc(C)c(C)c23)c1 | -1.6 | -15 | x | x
C[C@H](CO)N1C[C@H](C)[C@H](CN(C)C(=O)Nc2cccc3ccccc23)Oc2ccc(NS(=O)(=O)c3cn(C)cn3)cc2C1=O | 2.3 | 4 | -0.14 | x
CC(C)N1C(=O)S/C(=C/c2ccc(Sc3nc4ccccc4[nH]3)o2)C1=O | -0.5 | 34 | 0.069 | x
CCNc1nc(NC(C)(C)C)nc(N(C#N)CC(=O)OC)n1 | -1.3 | -1 | x | x
CCN(CC)CCN1C2=C(C(=O)CC(C)(C)C2)C(c2cccc(F)c2)C2=C1CC(C)(C)CC2=O | -9.4 | -6 | 0.055 | -22
C[C@@H]1CN([C@H](C)CO)C(=O)c2cc(NC(=O)Nc3ccc4c(c3)OCO4)ccc2O[C@H]1CN(C)Cc1ccncc1 | 1.5 | 1 | -0.14 | x
CC(C)NC(=O)Nc1ccc2c(c1)C(=O)N([C@@H](C)CO)C[C@H](C)[C@H](CN(C)Cc1ccc3c(c1)OCO3)O2 | -0.4 | -2 | -0.066 | x
C[C@@H]1CN([C@H](C)CO)C(=O)c2cc(NC(=O)Cn3cnnn3)ccc2O[C@H]1CN(C)C | 0.6 | -4 | -0.31 | x
O=C(Cn1cc(C(=O)c2cccs2)c2ccccc21)Nc1ccc(Br)cc1 | -1.1 | 29 | x | x
COC(=O)C1=CO[C@@H](O[C@@H]2O[C@H](CO)[C@@H](O)[C@H](O)[C@H]2O)[C@H]2[C@@H]1[C@H](O)C[C@]2(C)O | 1.1 | -2 | -0.04 | -1
Cc1cccc2c1N(C)C(=O)C2(O)CC(=O)c1ccco1 (stereo not given) | -1.1 | -10 | x | x
CNC[C@@H]1Oc2c(N)cccc2C(=O)N([C@H](C)CO)C[C@H]1C | 2.7 | -2 | -0.13 | -14
COCc1cc(=O)[nH]c(SCC(=O)C(C)(C)C)n1 | -0.6 | -14 | -0.32 | x
N#C/C(=C\N1CCCCC1)S(=O)(=O)c1ccc(Cl)cc1 | 0.4 | 3 | -0.23 | x
COc1ccc2[nH]cc(CCNC(C)=O)c2c1 | x | -15 | -0.18 | 18
C[C@H]1CN([C@@H](C)CO)C(=O)c2cccc(NC(=O)C3CC3)c2O[C@H]1CN(C)C(=O)Nc1cccc2ccccc12 | 1.8 | 0 | -0.04 | 4
COc1ccc(S(=O)(=O)Nc2cccc3c2O[C@@H](CN(C)C(=O)Nc2cccc4ccccc24)[C@H](C)CN([C@H](C)CO)C3=O)cc1 | 0.7 | 7 | -0.54 | 39
NC(=O)CSc1nnc(-c2ccncc2)n1-c1cccc(C(F)(F)F)c1 | 0.3 | -10 | x | x
CCCCN1C(=O)C(O)(CC(=O)c2ccccn2)c2ccccc21 (stereo not given) | -1.4 | -3 | x | x
COc1ccc(Cl)cc1-n1c(Cn2ncc3ccccc3c2=O)n[nH]c1=S | 0.5 | 7 | x | x
C[C@H](CO)N1C[C@H](C)[C@H](CN(C)Cc2ccncc2)Oc2ccc(NC(=O)Nc3ccc(F)cc3)cc2CC1=O | 1.5 | -14 | 0.039 | 7
C[C@@H]1CN([C@H](C)CO)C(=O)c2cccc(NC(=O)c3ccc(-c4nccs4)cc3)c2O[C@@H]1CN(C)C(=O)Nc1ccc2c(c1)OCO2 | 1.8 | -2 | -0.059 | 14
C[C@@H]1CN([C@@H](C)CO)C(=O)c2cc(NC(=O)CCCN(C)C)ccc2O[C@H]1CN(C)C | x | -4 | -0.35 | -17
C[C@@H]1CN([C@@H](C)CO)C(=O)c2cccc(NC(=O)Nc3ccc(C(F)(F)F)cc3)c2O[C@H]1CN(C)C(=O)Nc1cccc2ccccc12 | -4.2 | 40 | 0.34 | -150
COc1ccc(S(=O)(=O)Nc2ccc3c(c2)C(=O)N([C@@H](C)CO)C[C@H](C)[C@H](CN(C)Cc2ccc(C(=O)Nc4ccccc4N)cc2)O3)cc1 | -0.5 | 11 | -0.076 | x
Cc1cc(OCC(=O)NCc2cccnc2)c(C)cc1Br | -2.5 | -13 | x | x
C[C@@H]1CN([C@H](C)CO)C(=O)c2cc(NS(=O)(=O)c3cccs3)ccc2O[C@H]1CN(C)Cc1ccc2c(c1)OCO2 | -0.5 | 5 | -0.25 | 3
C[C@H]1CN([C@@H](C)CO)C(=O)c2cccc(NS(=O)(=O)c3ccc(F)cc3)c2O[C@@H]1CN(C)CC1CCCCC1 | x | -14 | 0.011 | 13
C[C@H]1CN([C@@H](C)CO)C(=O)c2cc(NS(=O)(=O)c3cn(C)cn3)ccc2O[C@@H]1CN(C)CC1CC1 | 2.0 | 1 | -0.35 | -13
Cc1noc(C)c1NC(=O)Nc1ccc2c(c1)CC(=O)N([C@H](C)CO)C[C@@H](C)[C@@H](CN(C)Cc1ccc(C(=O)Nc3ccccc3N)cc1)O2 | 1.7 | 0 | -0.39 | x
Cc1ccc(S(=O)(=O)NCc2ccccc2)cc1 | -0.6 | -24 | -0.37 | x
CC(=O)Nc1ccc(NC(=O)Cn2cc([N+](=O)[O-])cn2)cc1 | 2.8 | -31 | x | x
CC(C)=CCc1cc(O)ccc1O[C@@H]1O[C@H](CO)[C@@H](O)[C@H](O)[C@H]1O | 0.2 | -17 | -0.91 | -30
Cc1ccc(NC(=O)COc2ccc(Cl)cc2C)c([N+](=O)[O-])c1 | 1.5 | 2 | x | x
Cc1c(Cl)cccc1NC(=O)Cn1cc(C(=O)c2ccccc2)c2ccccc21 | -3.6 | 28 | x | x
Cc1ccc(OCC(=O)Nc2cc(Cl)ccc2C(=O)O)c(C)c1 | 3.9 | 3 | x | x
C[C@H]1CN([C@@H](C)CO)C(=O)c2cc(NC(=O)CCC(F)(F)F)ccc2O[C@H]1CN(C)Cc1ccncc1 | -0.7 | -3 | -0.62 | -20
Cc1noc(C)c1NC(=O)N(C)C[C@H]1OCCCC[C@@H](C)Oc2ccc(NS(=O)(=O)c3cccs3)cc2C(=O)N([C@H](C)CO)C[C@@H]1C | -0.2 | -10 | 0.053 | -10
Cc1ccnc(NC(c2cc(C)ccc2C)c2ccc3ccc(C)nc3c2O)c1 (stereo not given) | -9.4 | 11 | x | x
C[C@H]1CN([C@@H](C)CO)C(=O)c2cccc(NC(=O)c3ccncc3)c2O[C@@H]1CN(C)Cc1ccccc1 | 2.0 | -14 | -0.19 | -8
COc1ccc(S(=O)(=O)Nc2cccc3c2O[C@@H](CN(C)C(=O)Nc2ccc(C(F)(F)F)cc2)[C@H](C)CN([C@@H](C)CO)C3=O)cc1 | -1.0 | 6 | 0.4 | -59
Cc1cc(C)cc(NC(=O)CN(c2cc([N+](=O)[O-])ccc2C)S(C)(=O)=O)c1 | 0.1 | 27 | x | x
COc1ccccc1NC(=O)c1c(C)nc(Nc2nc3ccccc3o2)nc1C | 3.1 | -16 | x | x
C[C@@H]1CN([C@@H](C)CO)C(=O)Cc2cc(NC(=O)Nc3ccccc3)ccc2O[C@@H]1CN(C)Cc1ccc(C(F)(F)F)cc1 | -1.6 | 4 | 0.26 | 25
Cc1ccc(S(=O)(=O)Nc2ccc3c(c2)C(=O)N([C@@H](C)CO)C[C@@H](C)[C@@H](CN(C)Cc2ccc(C(=O)Nc4ccccc4N)cc2)O3)cc1 | 0.0 | 9 | -0.12 | x
COc1ccc(NC(=O)Cn2cc(C(=O)C(C)C)c3ccccc32)cc1 | -0.9 | -12 | x | x
Cc1ccc(NC(=O)CSc2nnc(-c3cccs3)n2C)cc1Cl | -0.9 | 4 | x | x
C[C@H](CO)N1C[C@H](C)[C@H](CN(C)S(=O)(=O)c2ccccc2)Oc2c(NC(=O)C3CCOCC3)cccc2C1=O | 3.8 | -4 | 0.15 | 9
C[C@@H]1CN([C@@H](C)CO)C(=O)Cc2cc(NC(=O)CCC(F)(F)F)ccc2O[C@@H]1CN(C)S(=O)(=O)c1ccc(F)cc1 | 0.2 | 7 | -0.083 | -18

(further entries)
structure | PD-1 reversal | MITF inh | YB-1 expression | Hedgehog inh
C[C@H]1CN([C@@H](C)CO)C(=O)Cc2cc(NC(=O)c3ccncc3)ccc2O[C@H]1CN(C)Cc1ccc(C(=O)O)cc1 | 2.0 | -13 | -0.17 | -39
C[C@@H]1CN([C@@H](C)CO)C(=O)c2cccc(NS(C)(=O)=O)c2O[C@@H]1CN(C)CC1CCCCC1 | -0.2 | -5 | 0.16 | -4
Cc1ccc(NC(=O)CSc2nnc(-c3cccc4ccccc34)n2-c2ccccc2)c(C)c1 | 0.0 | 34 | x | x
CC(C)NC(=O)Nc1ccc2c(c1)C(=O)N([C@@H](C)CO)C[C@H](C)[C@@H](CN(C)Cc1ccccc1)O2 | -0.5 | 9 | 0.27 | -5
Cc1nc2ccccc2n1CC(O)COc1ccccc1Cl (stereo not given) | -1.8 | 62 | x | x
CN(C)/C=C/C(=O)c1ccc2c(c1)CCC(C)(C)O2 | -0.2 | 9 | -0.26 | 51
C[C@H](CO)N1C[C@H](C)[C@H](CN(C)S(=O)(=O)c2ccc(Cl)cc2)Oc2ccc(NS(=O)(=O)c3ccc(Cl)cc3)cc2C1=O | -4.8 | 7 | 0.16 | x
COc1ccc(CN(C)C[C@@H]2Oc3ccc(NS(=O)(=O)c4cn(C)cn4)cc3CC(=O)N([C@H](C)CO)C[C@@H]2C)cc1 | x | 10 | -0.45 | x
C[C@@H]1CCCCO[C@@H](CN(C)Cc2ccc(Cl)c(Cl)c2)[C@@H](C)CN([C@H](C)CO)C(=O)c2cc(NC(=O)Nc3ccc(F)cc3)ccc2O1 | -1.5 | 17 | 0.025 | 5
C[C@H]1CN([C@@H](C)CO)C(=O)c2cc(NC(=O)Cc3ccccc3)ccc2O[C@H]1CN(C)Cc1ccc2c(c1)OCO2 | -1.4 | -9 | 0.5 | x
C[C@@H]1CCCCO[C@H](CN(C)C(=O)c2ccccc2)[C@@H](C)CN([C@H](C)CO)C(=O)c2cc(NS(=O)(=O)c3cn(C)cn3)ccc2O1 | 1.9 | -6 | 0.084 | -24
CC[n+]1ccccc1/C=C/N(C(C)=O)c1ccccc1 | 0.3 | -2 | -0.56 | -15
CCn1c(SCC(=O)Nc2cc(Cl)ccc2Cl)nnc1-c1ccccc1OC | -1.7 | 36 | x | x
C[C@H](CO)N1C[C@H](C)[C@@H](CN(C)S(=O)(=O)c2ccc(Cl)cc2)Oc2c(NC(=O)Nc3ccc(C(F)(F)F)cc3)cccc2C1=O | -2.2 | 2 | 0.37 | 20

Shown with two lines to a compound: part of the list above
Second line of a record: PD-1 reversal, MITF inh, YB-1 expression, Hedgehog inh
> C[C@@H]1CN([C@@H](C)CO)C(=O)c2cccc(NS(C)(=O)=O)c2O[C@@H]1CN(C)CC1CCCCC1
  -0.2, -5, 0.16, -4
> CC[n+]1ccccc1/C=C/N(C(C)=O)c1ccccc1
  0.3, -2, -0.56, -15
> CC(C)NC(=O)Nc1ccc2c(c1)C(=O)N([C@@H](C)CO)C[C@H](C)[C@@H](CN(C)Cc1ccccc1)O2
  -0.5, 9, 0.27, -5

A portion of the library; count on the stated rates, not on these rows.
